High-throughput results: PubChem, National Center for Advancing Translational Sciences (NCATS)
HPGD inh = HPGD (human) dehydrogenase inhibition; P15428; purified HPGD, NADH fluorescence kinetic, PGE2 substrate; Potency, µM, without a hit: at the highest dose activity change, negative = inhibition, actives largely listed as inhibitors; 4.3% of 150,000 active; AID 894; active = well fitted inhibition curve with a large enough effect (not every such curve was filed as active); inconclusive = small, poorly fitted or top-dose-only effect, or another doubt; inactive = no such curve, though single readings can be large or run the other way;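 note: top concentration of the series not given in the record; plate controls included wells without enzyme; inactives centre near -10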
Target sequence (P15428 whole entry, looked up): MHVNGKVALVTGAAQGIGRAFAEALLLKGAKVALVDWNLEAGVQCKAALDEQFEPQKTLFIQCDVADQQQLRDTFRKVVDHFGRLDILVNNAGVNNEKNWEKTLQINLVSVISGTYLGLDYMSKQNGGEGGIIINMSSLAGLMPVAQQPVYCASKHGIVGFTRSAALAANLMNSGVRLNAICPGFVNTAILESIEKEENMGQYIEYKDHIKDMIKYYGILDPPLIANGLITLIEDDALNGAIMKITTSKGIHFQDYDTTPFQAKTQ
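NADH formation kinetics: reaction with 30 uM PGE2 and 1 mM NAD+ (final), 20 nM enzyme, Tris-HCl pH 8 with Tween 20, after 15 min compound preincubation at room temperature. Fluorescence change, last versus first of five reads.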
Starred values were filed as active, the others as inactive; ? = inconclusive; & = joins results of further samples; ! = not active in a repeat. % is set by controls: 0 for no effect and ±100 for the full control effect; potency is the fitted concentration of half-maximal effect. This is a subset (hit frequency here may not be typical).

SMILES | HPGD inh
C/C(=C\C(=O)c1ccc(F)cc1)Nc1ccc(N2CCOCC2)cc1 | -17%
COc1ccc(-c2nc3cnc(N4CCNCC4)nc3n(Cc3cccc(OC)c3)c2=O)cc1 | -21%
COc1cccc(-n2ccnc2SCC(=O)Nc2ccccc2)c1 | -20%
COc1ccc(S(=O)(=O)N/N=C\c2ccc(OC)c(COc3ccc(C)cc3[N+](=O)[O-])c2)cc1 | -12%
CCOC(=O)C1CCCN(C(=O)Cc2c(F)cccc2Cl)C1 (stereo unspecified) | -13%
CC(=O)c1c(C)[nH]c(C(=O)OCCCCN2C(=O)c3ccccc3C2=O)c1C | -24%
CN(C)CCCn1c(N)c(C#N)c2nc(C#N)c(C#N)nc21 | ?
O=C(NCCN1CCN(C(=O)C(c2ccccc2)c2ccccc2)CC1)C(=O)Nc1ccccc1 | 0%
COc1ccc(/C=C(/NC(=O)c2cccs2)C(=O)Nc2ccc(C)cc2)cc1OC | -2%
Nc1cc([N+](=O)[O-])ccc1C(=O)O | -28%
c1ccc(-c2nc3ccccc3[nH]2)nc1 | ?
CCc1ccc(C2CC(c3cccc(Cl)c3)n3nc(N)nc3N2)cc1 (stereo unspecified) | -22%
COc1ccc2c(C)c(Cl)c(=O)oc2c1 | ?
Cc1cccc(NC(=S)NCC(c2cccnc2)N2CCOCC2)c1 (stereo unspecified) | -2%
Cc1cc(C)c2nc(SCCc3ccccc3)nc(C)c2c1 | -20%
O=C(NCC1CCCO1)C1CCCN1C(=O)NC1CCCCC1 (stereo unspecified) | -1%
Cc1cc(NC(=O)c2cccc(S(=O)(=O)N3CC(c4ccccc4)CC3=O)c2)no1 (stereo unspecified) | -4%
Cn1c(Cn2c(=O)sc3ccccc32)nnc1SCC(=O)NCc1ccccc1 | -7%
COc1ccc(OC)c(/C(O)=C/C(=O)C(=O)Nc2cc(C)cc(C)c2)c1 | -8%
CCOc1ccc(N(CC(=O)Nc2ccccc2C(=O)NC(C)CC)S(C)(=O)=O)cc1 (stereo unspecified) | -14%

In the list so far, these contain an aryl thioether with sulfur outside any ring:
SMILES | HPGD inh
COc1cccc(-n2ccnc2SCC(=O)Nc2ccccc2)c1 | -20%
Cc1cc(C)c2nc(SCCc3ccccc3)nc(C)c2c1 | -20%
Cn1c(Cn2c(=O)sc3ccccc32)nnc1SCC(=O)NCc1ccccc1 | -7%

(further entries)
SMILES | HPGD inh
COc1ccc(OC)c(C2Nc3nc4ccccc4n3C(C)=C2C(=O)Nc2ccc(C)cc2C)c1 (stereo unspecified) | -11%
O=C(c1cc2c(s1)-c1ccccc1OC2)N1CCCC1 | ?
O=C(O)c1ccc(N[C@@H]2OC[C@@H](O)[C@@H](O)[C@@H]2O)cc1 | -6%
COC(=O)c1ccc(C(=O)OC)c(NC(=S)N2CCN(c3cccc(Cl)c3)CC2)c1 | -13%
COc1ccc(C(=O)N2CCC3(CCCN(Cc4ccncc4)C3)CC2)cc1 | -1%
Cc1ccc(NC(=S)N/N=C/c2ccc(OCCC(C)C)cc2)c(C)c1 | -14%
COc1ccc(Nc2ncnc3c2oc2ccccc23)cc1 | ?
COc1cccc(OCC(=O)O/N=C(\N)c2ccc(OC)c(OC)c2)c1 | -5%
O=C(c1ccc(CS(=O)(=O)c2c(Cl)cccc2Cl)o1)N1CCN(c2ccccn2)CC1 | -4%
O=C(OCc1c(F)cccc1Cl)c1cnccn1 | -15%
COc1ccc(N(C)S(=O)(=O)c2c(C)[nH]c(=O)[nH]c2=O)cc1 | -7%
O=C(CC1Oc2ccccc2NC1=O)NC1CC1 (stereo unspecified) | -5%
CC(Oc1ccccc1)C(=O)Nc1cccc(F)c1 (stereo unspecified) | -4%
CCN1C/C(=C\c2cccc(C)c2)c2nc3ccccc3c(C(=O)O)c2C1 | -26%
Nc1nonc1-n1nnc(C(=O)c2ccccc2)c1-c1ccccc1 | -12%
CC1(C)NC(C)(C)c2nonc2/C1=N\O | -4%
Cc1cc(/C=N/NC(=O)c2nn(C)cc2Cl)c(C)n1-c1cccc(Br)c1 | -5%
CSC1=C(C#N)C(c2ccccc2Cl)C(C(C)=O)=C(C)N1 (stereo unspecified) | -20%
CC(C)NC(=O)C1CCCN(S(=O)(=O)c2ccc(-n3cnnn3)cc2)C1 (stereo unspecified) | -4%
Cc1c(C(=S)Nc2ccccc2)cnn1-c1ccccc1 | ?

Four of the entries above in order of the HPGD inh value, lowest first.
SMILES | HPGD inh
CSC1=C(C#N)C(c2ccccc2Cl)C(C(C)=O)=C(C)N1 (stereo unspecified) | -20%
O=C(OCc1c(F)cccc1Cl)c1cnccn1 | -15%
COc1cccc(OCC(=O)O/N=C(\N)c2ccc(OC)c(OC)c2)c1 | -5%
CC(C)NC(=O)C1CCCN(S(=O)(=O)c2ccc(-n3cnnn3)cc2)C1 (stereo unspecified) | -4%

Remaining list, next part
SMILES | HPGD inh
COc1ccc(NC(=O)c2ccc(C)cc2)c(OC)c1 | -6%
CC(C)N(Cc1nc(-c2ccccc2)no1)C(=O)Cc1ccccc1 | -9%
CN(c1ccc(OCC(=O)OCC(=O)Nc2ccc(F)cc2)cc1)S(=O)(=O)c1ccc(Cl)cc1 | -5%
CCCCSCCCNC(=O)CS(=O)Cc1nc(-c2cccc(C)c2)oc1C (stereo unspecified) | 0%
COc1ccc(CNC(=O)CSc2nnc(Cn3nnc4ccccc43)n2C)cc1 | -4%
O=C1NN(c2ccccc2)C(=O)/C1=C/c1cccs1 | -21%
Cc1ccccc1-n1c(Cn2c(=O)sc3ccccc32)nnc1SCC(=O)NCC1CCCO1 (stereo unspecified) | ?
CCCCc1ccc(S(=O)(=O)NNC(=S)NCc2ccco2)cc1 | -14%
O=C(Nc1ccc(F)cc1)C(c1ccccc1)N1CCN(S(=O)(=O)c2ccccc2)CC1 (stereo unspecified) | -9%
COC(=O)C(NC=O)C(O)(Cc1ccccc1)C(F)(F)F (stereo unspecified) | 2%
C/C(=N\N=C(/N)SC1CC(=O)N(c2ccccc2)C1=O)c1cccs1 (stereo unspecified) | -18%
COC(=O)c1ccc(OC(=O)C2CC(=O)N(c3cccc(C)c3)C2)cc1 (stereo unspecified) | ?
COC(=O)C1(C)NC(c2ccco2)C2C(=O)N(c3ccc(C)cc3)C(=O)C21 (stereo unspecified) | -4%
CC1CCN(C(=O)C2CCN(S(=O)(=O)c3cnc[nH]3)CC2)CC1 | -3%
O=C(Nc1ccc(N2CCCCC2)cc1)c1ccc2c(c1)OCCO2 | -18%
Cc1sc2nc(SCC(=O)NCCO)n(C)c(=O)c2c1C | -10%
CC1CCC(C(=O)O)([C@H](Br)C(=O)O)CC1 (stereo partly specified) | -4%
Cc1cc(C)nc(Nc2ccc(N3CCOCC3)cc2)n1 | -9%
Cc1c(C(=O)Nc2ccccc2)cn2c(nc3ccccc32)c1C#N | -16%
CC1CCCN(CCC(=O)Nc2ccc3c(c2)CCC3)C1 (stereo unspecified) | -16%

Another view of two compounds above.
compound,HPGD inh
Cc1c(C(=O)Nc2ccccc2)cn2c(nc3ccccc32)c1C#N,-16%
CC1CCCN(CCC(=O)Nc2ccc3c(c2)CCC3)C1 (stereo unspecified),-16%

The listing continues.
SMILES | HPGD inh
CCOc1ccccc1NC(=O)CCN(c1ccc(C)cc1)S(=O)(=O)c1ccccc1 | -10%
COc1ccc(OC)c(N/C=C2/CCCCC2=O)c1 | 18µM*
CCOC(=O)c1cc(-c2ccc(OC(F)F)cc2)nc2c1c(=O)[nH]c(=O)n2C | ?
C[C@]12C=CC(=O)C=C1CC[C@H]1[C@@H]3C[C@@H](O)[C@](O)(C(=O)CO)[C@@]3(C)C[C@H](O)[C@@]12F | -4%&-3%
Cc1ccc(S(=O)(=O)N2CCN(C(=O)N(C)C)CC2)cc1C | 5%
Cc1ccc(/C(=C/CN2CCCC2)c2ccccn2)cc1 | -15%&-2%
O=C(Nc1ccccc1)C1=C(O)CC(c2ccco2)CC1=Nc1ccccc1 (stereo unspecified) | -18%
COC(=O)C(Cc1ccccc1)NC(=O)CSc1nc(N)cc(=O)[nH]1 (stereo unspecified) | -2%
CC(=O)Oc1ccc(C(=O)Nc2cc(NC(=O)c3ccc(OC(C)=O)cc3)cc(C(=O)NC(C)(C)C)c2)cc1 | -18%
Cc1cc(C)cc(N2CC(C(=O)O)CC2=O)c1 (stereo unspecified) | 5%
Cc1ncc(CO)c2cc(C(N)=O)c(=Nc3ccccc3)oc12 | -7%
Cc1ccc(C)c(Cn2c(CO)nc3ccccc32)c1 | -9%
Cn1nnnc1SCC(=O)Nc1ccccc1Cc1ccccc1 | -10%
O=C(CNCC1CCCO1)Nc1ccccc1N1CCCCCC1 (stereo unspecified) | 3%
Cc1ccc(-n2c(C)cc(C(=O)COC(=O)C3=NNC(=O)CC3)c2C)cc1 | 0%
COc1ccc(Cn2nnnc2CN2CCOCC2)cc1 | -18%
N#C/C(=C(/O)COC(=O)CCCNC(=O)c1ccc(Cl)cc1)c1nc2ccccc2[nH]1 | -23%
Cc1ncc([N+](=O)[O-])n1CCOC(=O)Nc1ccc([N+](=O)[O-])cc1 | -15%
C=C(C)C1CC=C(C)/C(=N/NC(=O)c2cccc([N+](=O)[O-])c2)C1 (stereo unspecified) | -18%
CCN(CC)c1ccc(/C=N/OC(C)C(=O)Nc2ccc(C)cc2)cc1 (stereo unspecified) | ?

Three structures already listed, arranged by SMILES length, largest number first.
SMILES | HPGD inh
Cc1ncc([N+](=O)[O-])n1CCOC(=O)Nc1ccc([N+](=O)[O-])cc1 | -15%
O=C(Nc1ccccc1)C1=C(O)CC(c2ccco2)CC1=Nc1ccccc1 (stereo unspecified) | -18%
Cc1ccc(S(=O)(=O)N2CCN(C(=O)N(C)C)CC2)cc1C | 5%

Next section:
SMILES | HPGD inh
Cc1cc(C(=O)CSc2nnnn2-c2ccccc2)c(C)n1-c1ccc2c(c1)OCO2 | -19%
Cc1cccc(N2C(N)=C(C#N)C(C#N)(C#N)C2c2ccccc2)c1 (stereo unspecified) | ?
Cn1cnnc1SCC(=O)NC(=O)NC1CCCC1 | 0%
O=C(NCCCN1CCCC1=O)c1ccc2c(c1)ncn2C1CCCCC1 | -6%
O=C(NNS(=O)(=O)c1ccc(F)c(Cl)c1)c1cccc(S(=O)(=O)N2CCOCC2)c1 | -8%
CN(C)CCOC(=O)Cc1ccc(Cl)cc1 | -2%
Nc1nnc(SCc2cc3c(cc2Cl)OCO3)s1 | -17%
O=C(NCc1ccccc1)c1ccc(-c2ccccc2C(F)(F)F)o1 | 32µM*!
Cc1ccc2[nH]c(=O)c(CN(CC3CCCO3)C(=O)c3ccco3)cc2c1 (stereo unspecified) | -7%
O=C(CSc1nnc(NC(=O)C2CCC2)s1)Nc1ccc(N2CCOCC2)cc1 | -11%
COc1ccc(/C=N/NC(=O)c2ccc3c(c2)OCCO3)cc1[N+](=O)[O-] | -4%
CC(NC(=O)c1ccc(NS(C)(=O)=O)cc1)c1ccccc1 (stereo unspecified) | -7%
Cc1ccc(C(C(=O)NCc2ccco2)N(C(=O)CNC(=O)c2cccs2)c2c(C)cc(C)cc2C)cc1 (stereo unspecified) | -19%
Cc1ccc(C(=O)Nc2ncc3c(Cl)cccc3n2)cc1 | -4%
c1ccc(OCc2nc3c4c(ncn3n2)-c2ccccc2CC42CCCC2)cc1 | -30%
CON/C=C(\C=Nc1ccc(F)cc1)c1ncc(C(F)(F)F)cc1Cl | -4%
O=C(CNC(=O)C1CCCCC1)Nc1cc(Cl)cc(Cl)c1 | -12%
Nc1c([N+](=O)[O-])cnnc1-c1ccccc1 | -10%
COc1ccc(/C=N/NC(=O)C(=O)Nc2ccccn2)cc1OC | -11%
O=C(NCCCO)/C(=C/c1ccco1)NC(=O)c1ccc(Br)o1 | -14%
O=C(NC1CC1)c1c[nH]c2ccc(S(=O)(=O)Nc3cccc(C(F)(F)F)c3)cc2c1=O | -11%
CNC(=O)COc1ncnc2sccc12 | -2%
O=C(NCCC1=CCCCC1)C1CCN(S(=O)(=O)c2cnc[nH]2)CC1 | 1%
COc1ccc(N2CC(O)=C(c3nc4ccccc4s3)C2=N)cc1 | -15%
COc1ccccc1NC(=O)N1CCN(c2ccccc2F)CC1 | 2%
O=C(CCSCCC(=O)NCc1ccco1)NCc1ccco1 | 16µM*
Cc1c(N)c(=O)n(-c2ccccc2)n1C | -12%&-4%
CCn1c(Cc2ccccc2)nnc1SCC(=O)Nc1ccc(N)cc1 | -2%
CC(=O)N/C(=C/c1ccccc1)C(=O)NCCO | -3%
CC(/C=N/NC(=O)c1cc(-c2ccccc2)nc2ccccc12)=C\c1ccco1 | -13%
Cc1cc(C)c(C)c(OCC(=O)NCc2nc(-c3ccccc3)no2)c1 | -1%
Cc1cccc(-c2nnc(NC(=O)c3cccs3)s2)c1 | ?
O=c1cc(-c2ccc(O)c(O)c2)oc2cccc(O)c12 | -27%
COc1ccc(Br)cc1-c1noc(-c2ccncc2)n1 | -21%
Cc1cccc(-c2nc3c(c(SCC(=O)N4CCOCC4)n2)CCCC3)c1 | -12%
COc1ccc2c(c1)NC1(O)c3ccccc3C(=O)C21O (stereo unspecified) | -3%
O=[N+]([O-])c1ccc2nc(SCc3cn4ccccc4n3)[nH]c2c1 | -3%
C[C@H](NC(=O)OC(C)(C)C)c1nnc(SCC(=O)Nc2ccc(Br)cc2)o1 | -2%
COc1ccc(NC(=O)N2CCC3(CC2)CCN(S(C)(=O)=O)CC3)cc1 | -5%
C=CCNC(=S)Nc1sc2c(c1C(=O)OCC)CCN(C(=O)OCC)C2 | -14%
O=C1CC(=O)C(n2cncn2)C(c2ccc(Cl)cc2Cl)C1 (stereo unspecified) | 0%
Cc1cccc(-n2c(C)cc(/C=N/O)c2C)c1 | ?
Cc1ccccc1SCC(=O)NC1CCOC1=O (stereo unspecified) | -9%
